Assay outcomes deposited in PubChem BioAssay by ICCB-Longwood Screening Facility, Harvard Medical School.
MgrA DNA FP – S. aureus MgrA-DNA binding modulation; fluorescence polarization; inhibition, %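 (about 10 µg/mL by stock and volumes)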; 84,000 compounds, 0.13% hits;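 active = above 50% in either of two replicates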;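 note: 0% = protein plus DNA without compound and 100% = DNA alone without protein; higher means less MgrA bound to DNA so lower polarization; one replicate is shown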
S aureus helic – S. aureus DNA helicase inhibition; AID 485395; 120,000 compounds, 0.05% hits; inhibition, %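 (tested at about 80 µM)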; purified S. aureus helicase, fluorescence unwinding assay; about half of the hits fall short of the stated cut;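 active = both duplicates at 50% or more, or one of them with a favoured structure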;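 note: 0% = mean of negative control wells and 100% = mean of positive control wells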
Active calls of the source: *; / = no result given. Some of the compounds tested (hit frequency here may not be typical).

mol | MgrA DNA FP | S aureus helic
Cc1onc(-c2ccccc2Cl)c1C(=O)N1C=Cc2ccccc2C1C#N (stereo unspecified) | -1.8 | /
N#CSc1ccc(NCCO)cc1C(F)(F)F | 1.6 | 2.0
O=c1oc2c3c(ccc2c2c1CCC2)OCN(c1ccccc1)C3 | -1.7 | 0.0
CCOC(=O)c1cc2occc2n1CCc1ccccc1 | 0.0 | 2.0
C=CCN1C(=O)/C(=C\c2ccccc2)SC1=S | 0.8 | 8.0
S=c1[nH]nc(COc2ccccc2Cl)o1 | -3.0 | 11.0
O=C1CN(c2ccccc2F)C(=O)CN1/N=C/c1cccs1 | / | 2.0
CCSc1ccccc1C(=O)NCCCn1ccnc1 | 0.4 | 1.0
Cc1ccccc1Nc1ncccc1C(=O)N1CCOCC1 | 0.4 | 12.0
CCOC(=O)C(C)Sc1nc(-c2cccs2)ccc1C#N (stereo unspecified) | 4.0 | 7.0
O=C(c1ccccc1)N1CCN(c2cccc(Cl)c2)CC1 | / | -6.0
COc1cc(/C=c2\sc3nc4c(C)c(C)ccc4n3c2=O)ccc1OC(C)C(=O)O (stereo unspecified) | 6.5 | /
CCOC(=O)CSC1=C(C#N)C(c2ccccc2OCC)C(C(=O)OCC)C(=O)N1 (stereo unspecified) | -0.8 | /
O=C(NC1CCCCC1)c1cc(-c2ccccc2)nc2ccccc12 | 0.0 | 11.0
CN1CCN(NC(=O)Cc2ccccc2Cl)CC1 | -1.4 | 8.0
CC1(C)CC(OC(=O)c2ccccc2)CC(C)(C)N1 | / | 14.0
Cc1cc(C)c(NC(=O)C2C3C=CC(C3)C2C(=O)O)c(C)c1 (stereo unspecified) | -1.3 | /
Cc1cc(C)c2c(n1)SCC(=O)N2CC(=O)N1CCN(C)CC1 | / | 2.0
N#Cc1cc(Cc2ccc(N)c(C#N)c2)ccc1N | -3.1 | 8.0
Cc1nc(C(F)(F)F)[nH]c(=O)c1C | -2.4 | /
COC(=O)c1cc2c(cc1N)OCCO2 | -8.1 | 18.0
O=C(C1=C2SC=C(c3ccc(Br)cc3)N2CC1)c1cncc(Br)c1 | / | -33.0
Cc1cc(C)n(-c2nc3cc(Cl)ccc3nc2NCc2ccc(F)cc2)n1 | -0.2 | 0.0
CCCCn1c(CCC(=O)OCc2csc(-c3ccccc3)n2)nc2cc(S(=O)(=O)N3CCOCC3)ccc21 | / | -4.0
COc1ccc(CNCC(=O)O)cc1 | 0.2 | -8.0
Fc1cccc2sc(NCc3ccccc3)nc12 | 1.1 | 1.0
O=C(Nc1cccc(N2CCCC2=O)c1)C1CCN(C(=O)/C=C/c2ccccc2)CC1 | / | -6.0
CC(=O)NNc1ncnc2c1cnn2-c1ccc(F)cc1 | / | 7.0
Nc1ccccc1-c1nc2ccccc2s1 | -2.5 | 10.0
CC(=O)N1N=C(c2c(-c3ccccc3)c3cc(Cl)ccc3[nH]c2=O)CC1c1ccccc1Cl (stereo unspecified) | -0.5 | /
O=C(NCCCc1ccco1)c1ccc(Cn2c(SCc3ccccc3)nc3cccnc32)cc1 | / | -9.0
CC1(C)C(c2ccccc2)=NC(c2ccccc2)=[N+]1[O-] | 5.3 | 9.0
O=C(Nc1ccc2c(c1)C(=O)NC2=O)c1ccco1 | / | 16.0
O=C(NCc1ccccc1)c1ccccc1 | -1.9 | -1.0
N#Cc1ccc(Sc2ccc(C#N)c(C#N)c2)cc1C#N | -5.6 | 8.0
Cc1n[nH]c(C)c1CN | -7.0 | 4.0
O=C(N=C1SCCN1CC(O)c1ccccc1)c1ccccc1 (stereo unspecified) | / | -6.0
Cc1ccc(S(=O)(=O)Nc2cncc(C(=O)N3CCc4ccccc43)c2)cc1 | / | 7.0
NC1=NC(=O)CC(C(=O)Nc2ccccc2)S1 (stereo unspecified) | -1.8 | -1.0
CCc1sc(NC(=O)CN2CCCC2)nc1-c1ccccc1 | 0.6 | 10.0
O=C(CC(=O)N1CCCC1)N1CCCC1 | -0.8 | /
Cc1cc(C)cc(N(C(C)C(N)=O)S(C)(=O)=O)c1 (stereo unspecified) | 0.7 | 5.0
O=C(NCc1csc(-c2cccs2)n1)C1CC1 | 1.2 | /
COC(CNC1=CC(=O)OC12CCCCC2)OC | -0.7 | 3.0
Cc1ccccc1NS(=O)(=O)c1ccc2c(c1)n(C)c(=O)n2C | 0.9 | 8.0
CC(O)c1cccc(NC(=O)C2C3C=CC(C3)C2C(=O)O)c1 (stereo unspecified) | 1.4 | 7.0
CCCN1CCC(NCCc2ccc(Cl)cc2)CC1 | -1.3 | 7.0
S=c1[nH]nc(Cc2cccc3ccccc23)n1/N=C/c1ccco1 | / | -4.0
Cc1nnc(COc2ccc3ccccc3c2Br)o1 | / | 11.0
CC1(C)Cc2ccccc2C(N2CCOCC2)=N1 | -2.2 | -9.0

Random excerpt: 5 entries already listed, in no set order.
mol | MgrA DNA FP | S aureus helic
O=C(NCc1csc(-c2cccs2)n1)C1CC1 | 1.2 | /
CC1(C)Cc2ccccc2C(N2CCOCC2)=N1 | -2.2 | -9.0
Nc1ccccc1-c1nc2ccccc2s1 | -2.5 | 10.0
O=C(N=C1SCCN1CC(O)c1ccccc1)c1ccccc1 (stereo unspecified) | / | -6.0
CCCN1CCC(NCCc2ccc(Cl)cc2)CC1 | -1.3 | 7.0

(further entries)
mol | MgrA DNA FP | S aureus helic
COc1ccc2nc(C)c(C(=O)OCCN(C)C)cc2c1 | / | 10.0
COc1ccc2c(c1)C(=O)CC(c1ccc3c(c1)OCCO3)O2 (stereo unspecified) | / | 4.0
COc1ccc(CCN=C=S)cc1 | / | 23.0
Cc1ccc(C(O)CCC(=O)O)cc1 (stereo unspecified) | -7.6 | -1.0
Oc1c(C=Nc2ccc(Cl)cc2)[nH]c2ccccc12 | -3.0 | -106.0
O=S(=O)(Nc1cccc(CCc2ccccn2)c1)c1cc(Cl)ccc1Cl | 0.0 | /
CC(OC(=O)Cc1ccsc1)C(=O)Nc1ccc(Cl)cn1 (stereo unspecified) | / | 13.0
Cc1ccc2[nH]c3c(c2c1)CCCC3CN (stereo unspecified) | / | 15.0
CCOc1ccc(OCCSc2nc(C)cc(=O)[nH]2)cc1 | -0.5 | -3.0
CS(=O)(=NS(=O)(=O)c1ccc(OC(F)(F)F)cc1)c1ccccc1 (stereo unspecified) | -1.6 | /
O=C(CCSc1ccccc1)NCc1ccco1 | -2.1 | 8.0
COc1ccc(-c2cc(C(=O)NCc3cccc(OC)c3)c3ccccc3n2)cc1 | 0.3 | 11.0
CC(C)OC(=O)C(C)Oc1ccc2c(=O)c(-c3ccccc3)coc2c1 (stereo unspecified) | 1.7 | 3.0
CCSc1nnc(NC(=O)/C=C/c2ccco2)s1 | / | -2.0
N#C/C(=C\c1ccccc1N1CCOCC1)S(=O)(=O)c1ccccc1 | -0.9 | /
O=C(CCCCn1c(=O)c2ccccc2n(Cc2cccnc2)c1=O)NCc1ccc2c(c1)OCO2 | / | -24.0
COc1ccccc1NC(=O)CSC(=O)c1ccccc1 | 4.0 | -23.0
O=C(NCC1OCCc2ccccc21)C1OCCc2ccccc21 (stereo unspecified) | / | -5.0
CC(C)NC(=O)CCSc1ccc(Cl)cc1 | -0.8 | 0.0
CCc1ncc(C(O)c2ccc(OC)cc2)n1C (stereo unspecified) | -1.0 | 0.0
COc1cc(C(=O)O)c(NC(C)=O)c(OC)c1OC | -3.0 | /
Cc1nc(COc2ccc(C#N)cc2)cs1 | 2.3 | /
CC1=NN(c2ccccc2)C(=O)C1/C=C1\C(=O)NC(=O)N(c2ccc(Cl)cc2)C1=O (stereo unspecified) | -0.3 | /
CC(C)NC(=O)NCc1c(F)cccc1Cl | 0.7 | /
CCOC(=O)c1c(NC(=O)CN2C(=O)C3CC=C(Cl)CC3C2=O)sc2c1CCCCC2 (stereo unspecified) | 5.6 | /
COc1ccc(CN(C)C(=O)C2CC(=O)N(C3CCCC3)C2)cc1F (stereo unspecified) | / | -14.0
CC(C)n1cc(-c2noc(-c3ccccc3Cl)n2)c(=O)n(Cc2ccccc2)c1=O | 0.2 | /
CCc1ccc(OCc2ccc(C(=O)OC)o2)cc1 | 4.2 | 12.0
Cc1nnc2c3ccccc3nc(Nc3cccc(C(F)(F)F)c3)n12 | / | 10.0
CCCc1cc(=O)oc2cc(OC(C)=O)cc(OC(C)=O)c12 | / | 4.0
Cc1ccc(-c2nnn(CC(=O)N3CC(=O)Nc4ccccc43)n2)cc1 | / | -15.0
COc1ccc(NC=O)c2ncccc12 | -0.5 | 10.0
COC(=O)c1sc(SC)c(C#N)c1-c1cccc(Cl)c1 | -0.5 | /
Cc1nnsc1-c1noc(C)c1-c1nc(-c2cc(C(F)(F)F)cc(C(F)(F)F)c2)no1 | / | 4.0
COC(=O)CNc1ccc(C)c(C)c1 | -2.4 | 14.0
CN(CC(=O)Nc1cccc2ccccc12)Cc1nc2ccccc2c(=O)[nH]1 | / | -10.0
Cc1nn(C(=O)c2ccc(Cl)cc2)c(C)c1Cc1c(F)cccc1Cl | -1.0 | /
CC(C)(C)c1cc(C(=O)Oc2cncc(Cl)c2)cc(C(=O)Oc2cncc(Cl)c2)c1 | 2.8 | /
Cc1cccc(-c2nc(CS(=O)CC(=O)NC(C)C)c(C)o2)c1 (stereo unspecified) | / | 1.0
CCC(=O)Nc1cc(-c2nn(C)c(=O)c3ccccc23)ccc1OC | / | 8.0
COc1ccc(CNC(=O)CN(C(=O)c2ccc(N3CCCC3)nc2)c2ccccc2C)cc1 | -0.3 | 6.0
CC(OC(=O)C1=NNC(=O)CC1)C(=O)Nc1cccc(Cl)c1 (stereo unspecified) | / | 7.0
O=C(O)CCC(=O)Nc1ccccc1-c1nnc(-c2ccc(Cl)cc2)o1 | -0.6 | /
Cc1cnc(N)c2c(=O)oc3ccccc3c12 | / | -23.0
CC(C)S(=O)(=O)c1csc(C(=O)O)c1N | -1.5 | /
O=C(Cc1ccc2c(c1)OCCO2)Nc1ccccc1C(=O)Nc1ccc2c(c1)OCO2 | / | -13.0
O=C(Nc1cccc(Cl)c1)Nc1nc(-c2ccc(OC(F)(F)F)cc2)no1 | -1.4 | /
Cc1cc(C)c2c(n1)sc1c(=O)oc(C)nc12 | / | -4.0
CC1CN(CCCOc2ccc(C(C)(C)C)cc2)CC(C)O1 (stereo unspecified) | 1.6 | -16.0
O=C(O)c1ccccc1C(=O)Nc1cccc(O)c1 | / | -8.0

A second format for two compounds above:
COc1ccc(NC=O)c2ncccc12
  MgrA DNA FP: -0.5 | S aureus helic: 10.0

CC1CN(CCCOc2ccc(C(C)(C)C)cc2)CC(C)O1 (stereo unspecified)
  MgrA DNA FP: 1.6 | S aureus helic: -16.0

Next section
mol | MgrA DNA FP | S aureus helic
c1ccc2c(c1)CCN2c1ncnc2c1nc1n2CCCCC1 | / | -7.0
Cc1onc(-c2ccccc2)c1C1=N/C(=C\c2ccc(Br)cc2)C(=O)O1 | 1.1 | /
CCN1C(=O)/C(=C2/C=Cc3ccccc3N2CC)SC1=Nc1ccc(N2CCOCC2)cc1 | / | 1.0
CCc1nn2c(=O)cc(COc3cccc(NC(=O)C45CC6CC(CC(C6)C4)C5)c3)nc2s1 | / | 3.0
COc1cccc(C=C2C(=O)c3ccccc3C2=O)c1OC(C)C | 9.1 | 1.0
COc1ccc(OC)c(S(=O)(=O)N2CCN(c3ncccn3)CC2)c1 | / | -6.0
CCn1c(=O)c(=O)[nH]c2cc(C(=O)NCCCn3ccnc3)ccc21 | / | -2.0
COc1ccc(N(C(=O)c2ccco2)C(C(=O)NC2CCCC2)c2cc(OC)c(OC)c(OC)c2)cc1 (stereo unspecified) | -0.5 | 4.0
C=CCN(CC=C)CC(O)Cn1c2c(c3ccccc31)CCN(C)C2=O (stereo unspecified) | / | 2.0
COC(=O)c1ccc(CC(=O)c2c(C)cc(O)cc2O)o1 | / | 3.0
CC(C)(C)C(=O)Nc1ccc2c(c1)OCO2 | 2.9 | -10.0
C[N+]1(C)C2CC(OC(=O)[C@@H](CO)c3ccccc3)CC1C1OC12 (stereo partly specified) | -0.7 | /
CS(=O)(=O)N1CCN=C1SCc1cccnc1 | / | 11.0
O=C(CSc1nncn1-c1ccc(C(F)(F)F)cc1)c1ccc(F)cc1 | -1.3 | /
CC(c1ccccc1)n1cnc2c1C(=O)c1ccccc1C2=O (stereo unspecified) | / | 4.0
CCc1ccc(NC(=O)C(C)OC(=O)c2ccc(C#N)cc2)cc1 (stereo unspecified) | -0.6 | -2.0
O=C1c2ccc([N+](=O)[O-])cc2C(=O)N1c1ccc(-c2nc3ccccc3s2)cc1 | 1.8 | /
O=C(c1ccc(F)cc1)c1oc2ccccc2c1NC(=O)C1COc2ccccc2O1 (stereo unspecified) | / | 36.0
Nn1c(SCC(=O)Nc2cccc(Br)c2)nnc1C1CC1 | / | 9.0
O=C(CSC1CCCCC1)Nc1ccc(F)cc1 | / | 13.0
COc1ccc(-n2c(SCC(=O)NCC3CCCO3)nc3c([nH]c4ccccc43)c2=O)cc1 (stereo unspecified) | / | 6.0
O=C(O)C1CCCCC1C(=O)Nc1ccc2[nH]c(=S)sc2c1 (stereo unspecified) | 6.3 | -13.0
CSC1=NCCN1CC(=O)c1ccc(Cl)cc1 | 3.7 | /
COc1ccc(-c2nc(N)n(C(C)=O)n2)cc1 | 1.8 | 6.0
CCOC(=O)Cn1c(=O)oc2cc(S(=O)(=O)N(CC(C)C)CC(C)C)ccc21 | / | -12.0
Cc1ccccc1-c1nnc(SCC(=O)c2ccccc2)o1 | 0.8 | -10.0
CCOC(=O)C(CC)n1nc(C)n2c(cc3sccc32)c1=O (stereo unspecified) | / | 14.0
COC(=O)c1cc2ccccc2[nH]1 | -0.3 | -21.0
